Screening results from PubChem.
ALR H2O2 inh: human ALR oxidase inhibition via reduced H2O2; P55789; purified ALR, DTT oxidation, H2O2 HRP-luminol luminescence; inhibition, % (test concentration not listed); 290,000 tested, 3.8% active; AID 485317;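 active = mean and each replicate at 75% or more; inconclusive = only one of the two met; inactive = neither met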;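 also: stock transfer was 7.5 nL into about 7.5 µL; 0% = neutral wells and 100% = wells with inactivated enzyme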
Target sequence (P55789 whole entry, looked up): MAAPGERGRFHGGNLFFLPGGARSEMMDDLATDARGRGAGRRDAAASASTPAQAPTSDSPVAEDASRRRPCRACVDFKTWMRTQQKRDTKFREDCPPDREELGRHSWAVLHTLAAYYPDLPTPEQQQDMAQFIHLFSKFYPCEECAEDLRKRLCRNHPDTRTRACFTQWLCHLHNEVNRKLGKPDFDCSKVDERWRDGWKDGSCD
Ecoli rRNA inh: inhibits bacterial ribosomal RNA function over humanized ribosomes; E. coli WT GFP vs humanized-ribosome RFP mutants, fluorescence, 24 h; stronger effect = lower value; DMSO median 0, no signal -100; GFP signal change (wild-type ribosome), % (no concentration beside the values); 350,000 tested, 1.6% active;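 active = significant combined selectivity score with lowered wild-type GFP, culture density cut under 30%, mutant RFP and density less affected; inactive = any of these conditions unmet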; also: one replicate is shown; some compounds called inactive have numbers as strong as hits
FGF22 binding: shifts melting point of recombinant human FGF22; Q9HCT0; recombinant FGF22 thermal shift, SYPRO orange fluorescence; percent of sucrose octasulfate shift, DMSO zero; calls only at 9.99 µM; 340,000 tested, 1.5% active; AID 651658;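 active = melting point raised past a set limit in the mean and every replicate; inconclusive = no clear call; three in four hits are not shown here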
Target sequence (Q9HCT0 whole entry, looked up): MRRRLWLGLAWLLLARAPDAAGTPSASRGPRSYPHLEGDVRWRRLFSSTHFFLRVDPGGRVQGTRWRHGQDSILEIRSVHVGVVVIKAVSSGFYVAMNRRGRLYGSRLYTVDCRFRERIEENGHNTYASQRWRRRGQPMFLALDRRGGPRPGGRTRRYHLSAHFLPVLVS
MLL AF4-AF9 inh: blocks AF4 peptide binding to human AF9; AlphaScreen, biotin-AF4 peptide binding to FLAG-AF9; 350,000 tested, 0.47% active; P42568; AID 651704; inhibition, % at 10 µM;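 active = every replicate reaching a set inhibition limit, whatever the replicate mean, cut at about 25% in these data; inconclusive = mean inhibition reaches that limit but some replicates miss it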;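 also: 0% = plate neutral control median and 100% = total signal loss; the record names both 10 and 1 µM as test concentration; the first replicate is given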
Target sequence (P42568 whole entry, looked up): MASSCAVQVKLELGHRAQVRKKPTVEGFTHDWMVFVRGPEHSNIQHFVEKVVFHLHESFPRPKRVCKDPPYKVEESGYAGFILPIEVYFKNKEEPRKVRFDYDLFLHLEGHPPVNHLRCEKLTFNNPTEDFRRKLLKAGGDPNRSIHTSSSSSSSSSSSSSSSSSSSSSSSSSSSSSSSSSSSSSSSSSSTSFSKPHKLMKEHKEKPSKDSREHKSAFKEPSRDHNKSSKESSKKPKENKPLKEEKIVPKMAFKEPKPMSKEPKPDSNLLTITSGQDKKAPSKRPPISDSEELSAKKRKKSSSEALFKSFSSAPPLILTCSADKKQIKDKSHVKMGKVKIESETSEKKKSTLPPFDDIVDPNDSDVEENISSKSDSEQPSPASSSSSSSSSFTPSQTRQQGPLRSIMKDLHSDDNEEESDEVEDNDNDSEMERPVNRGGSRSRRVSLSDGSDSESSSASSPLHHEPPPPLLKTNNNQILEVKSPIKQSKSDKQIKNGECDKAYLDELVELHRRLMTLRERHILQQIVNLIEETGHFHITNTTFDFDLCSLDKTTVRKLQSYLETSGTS
Vif A3G: HIV-1 Vif–A3G interaction blockers – biochemical, TR-FRET, GST-Vif 1-94, biotin-A3G peptide, dose response retest, primary screen (AID 1117319). TR-FRET GST-Vif / biotin-A3G peptide binding; higher % means a stronger effect; test concentration not given here; strong numbers were not always called active. one-dose inhibition, %; IC50 in µM for titrated hits. 260,000 tested, 0.57% active;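 active = above the screen mean plus three standard deviations and confirmed in dose response; inconclusive = results disagree or hit not tested in dose response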;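 also: Vif residues 1-94 fused to GST binding biotinylated APOBEC3G peptide 110-148; 0% = full assay without inhibitor and 100% = GST in place of GST-Vif; retest series ran down from 100 µM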
Ecoli growth: inhibitors of Escherichia coli growth. OD600, 23 h; stronger effect = lower value. OD600 absorbance (no concentration beside the values). AID 1053175. 330,000 tested, 0.21% active;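 active = OD600 absorbance below the run mean of sample wells minus 3.6 SD, in any replicate, cut at about 0.56 in these data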;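 also: stock transfer was 300 nL into about 60 µL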
HNF4A DNA FP: change in binding of human HNF4 alpha to DNA. HNF4a-FITC DNA binding, fluorescence polarization, 1 h. 360,000 tested, 0.3% active. P41235. activity change, % at 10 µM. AID 1224865; in the data active = activity change above about 30%, passing the limit was not always enough;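 also: controls were the assay level and a saturating level of protein; the project sought stronger binding though the title names inhibitors; some compounds called inactive have numbers as strong as hits; positive values seem to mean higher polarization but the record does not say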
Ecoli rRNA inh OD600: recorded beside Ecoli rRNA inh, whose call it bears; OD600 change, %; measured here: OD600 growth;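 optical density of the mix in the first replicate; 0 = DMSO median and -100 = no signal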
Ecoli rRNA inh RFP: also measured in Ecoli rRNA inh; calls as there; RFP signal change, %; measured here: RFP humanized mutant strains;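 first replicate; 0 = DMSO median and -100 = no signal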
Active calls of the source: *; i = inactive; ? = inconclusive; nt = no result given; + = active, no number.

SMILES	ALR H2O2 inh	Ecoli rRNA inh	Ecoli rRNA inh OD600	Ecoli rRNA inh RFP	FGF22 binding	MLL AF4-AF9 inh	Vif A3G	Ecoli growth	HNF4A DNA FP
Clc1ccccc1CN(Cc1ccccc1)c1ncnc2nc[nH]c12	-2	nt	nt	nt	nt	nt	-5%	0.69	-1.0
CCOC(=O)C1(Cc2ccc(OC)cc2)CCN(C(=O)CCc2cccnc2)CC1	-5	-4	-2	0.8	i	0.2	-2%	0.69	4.6
COc1ccc(S(=O)(=O)NC(CC(=O)NCc2ccc3c(c2)OCO3)c2ccco2)cc1 (stereo not drawn)	-3	nt	nt	nt	nt	nt	7%	0.73	4.5
O=C(C[C@H]1C[C@H]2c3cc(NC(=O)Nc4ccccc4F)ccc3O[C@H]2[C@@H](CO)O1)NC1CCCCC1	nt	-2	-7	-5.6	i	-16	nt	nt	nt
COc1cc(C=O)c(-c2c(C=O)cc(OC)c3c2OCO3)c2c1OCO2	nt	-6	-6	0.8	i	-0.5	8%	0.64	0.1
CC1(C(=O)NS(=O)(=O)c2ccc(F)cc2F)CCN1C(=O)C1(c2ccc(Cl)cc2)CC1 (stereo not drawn)	nt	-3	17	-1.6	i	-0.2	nt	nt	6.4
O=C(c1cccnc1)N1C[C@@H]2[C@H](c3ccccc31)[C@H](CO)N2C(=O)Nc1ccc(F)cc1	nt	1	4	-0.6	i	-2.1	nt	nt	nt
CCOC(=O)c1c(N)sc(C(=O)Nc2ccccc2)c1C	nt	-25	-26	-4.6	+	0.8	-9%	0.69	0.0
O=C(NC(=S)Nc1ccccc1C(F)(F)F)c1ccccc1F	1	-32	-45	-8.8	i	-0.7	-10%	nt	6.2
O=C(CN1c2ccccc2Sc2ccccc21)N/N=C/c1ccc(Cl)cc1	-11	0	2	-0.5	i	0.7	-1%	nt	-2.6
Cn1c2c(c(=O)n(C)c1=O)C(NS(=O)(=O)c1ccccc1)(C(F)(F)F)C(=O)N2 (stereo not drawn)	-22	nt	nt	nt	nt	nt	12%	0.68	-1.7
CCn1cc(CNC(=O)c2cc(-c3cc(OC)ccc3OC)nc3ccccc23)c(C)n1	13	nt	nt	nt	nt	nt	nt	0.65	-3.5
CCOC(=O)CSc1nnc(CNC(=O)c2ccco2)n1C	-1	nt	nt	nt	nt	nt	29%	0.7	2.3
C=CCn1c(CC(C)(C)C)nc2ccccc21	0	4	13	2.4	i	-0.4	2%	0.7	-0.4
Cc1ccc(/C=N/NC(=O)CNC(=O)c2cccs2)cc1	1	16	7	2.3	i	-0.2	nt	nt	3.9
CCOC(=O)c1c(C)[nH]c(C(=O)OCC(=O)Nc2cccnc2Cl)c1C	0	6	13	-1.7	i	-23	-1%	0.66	2.9
COc1cc(C2=NOC(C(=O)Nc3ccc(C(C)=O)cc3)C2)cc(OC)c1OC (stereo not drawn)	-7	nt	nt	nt	nt	nt	7%	0.73	-2.5
Cc1ccccc1-c1ccc2c(c1)O[C@@H](CN(C)C(=O)C1CC1)[C@H](C)CN([C@@H](C)CO)S2(=O)=O	nt	-8	-12	-2.4	i	1.3	nt	nt	nt
Cc1cc2nc3c(=O)[nH]c(=O)[nH]c3nc2c([N+](=O)[O-])c1N	nt	22	-5	-15	i	-9.2	nt	0.76	-129
COc1ccc(OC)c(NC(=O)CSc2nnc(CNC(=O)c3ccco3)o2)c1	-18	nt	nt	nt	nt	nt	0%	0.75	1.1
CN(C)c1ccc(S(=O)(=O)NCC(=O)OCC(=O)Nc2cc(Cl)cc(Cl)c2)cc1[N+](=O)[O-]	0	nt	nt	nt	i	5.6	nt	0.69	-1.1
COc1ccc(NC(=O)N[C@@H]2CC[C@@H](CCNC(=O)c3ccccc3F)O[C@H]2CO)cc1	nt	-1	-3	-2.8	i	0.1	nt	nt	nt
O=C(NCCCCNC(=O)C(F)(F)F)C(F)(F)F	-4	21	10	2.6	i	25*	1%	0.61	8.6
CC1(C)Cc2c(cnn2-c2ccccc2)C(NC(=O)c2ccc[n+]([O-])c2)C1 (stereo not drawn)	-5	2	4	-1.0	i	-10	nt	0.72	3.3
CCC(=O)N(C)C[C@H]1Oc2cc(C#Cc3ccccn3)ccc2S(=O)(=O)N([C@@H](C)CO)C[C@@H]1C	nt	-3	-5	1.0	i	-0.8	nt	nt	nt
CN(C)C(=O)c1cccc(-c2cnc3c(NC=O)cc(-c4ccccc4Cl)cn23)c1	nt	-5	-48	5.4	i	-0.9	nt	nt	0.7
Cc1c(C(=O)N2CCN(c3ccccn3)CC2)oc2c(F)cccc12	nt	-20	-32	-2.4	i	-3.8	3%	0.68	0.7
Cc1ccccc1C(=O)Nc1ccc(C(=O)N/N=C/c2ccc(F)cc2)cc1	1	6	12	-4.1	i	-2.5	nt	nt	-3.1
COc1ccc(Oc2ccccc2/C=C/C(=O)O)cc1	nt	nt	nt	nt	nt	nt	-4%	0.68	5.0
Cc1ccc(S(=O)(=O)Nc2ccc3c(c2)C(=O)N([C@@H](C)CO)C[C@H](C)[C@@H](CN(C)C)O3)cc1	nt	4	2	0.3	i	-10	nt	nt	nt
C/C(=N\N1C(=O)c2ccccc2C1=O)c1cccc([N+](=O)[O-])c1	nt	4	6	-3.9	i	-4.5	1%	nt	2.2
O=C(C[C@@H]1C[C@H]2c3cc(NC(=O)NC4CCCC4)ccc3O[C@H]2[C@@H](CO)O1)NCc1ccc(-c2ccccc2)cc1	nt	0	-5	4.3	i	0.0	nt	nt	nt
Cc1cc2ncc(-c3cccc(Cl)c3)cn2n1	35	6	23	6.1	i	-1.7	-4%	0.76	7.0
COCCN1C(=O)N[C@@H](c2ccccc2)[C@H](C(C)=O)[C@H]1C	-9	7	7	-2.6	i	-6.4	nt	nt	1.3
CCNC(=O)C1(C)CCCN(C(=O)c2ccc3c(c2)C(C)(C)CCC3(C)C)C1 (stereo not drawn)	nt	-12	-61	-3.8	i	-3.1	nt	nt	6.0
CCCCC(=O)NNC(=S)NCc1ccccc1	2	8	-9	-1.0	i	-0.2	-1%	0.65	-2.2
COc1ccc(CCNC(=O)Cn2nnc3ccccc3c2=O)cc1	-26	nt	nt	nt	nt	nt	nt	0.68	-3.5
CCN1CCN(CCCN(Cc2ccco2)C(=S)Nc2ccc(Cl)cc2)CC1	-4	16	3	1.8	nt	5.6	4%	0.69	6.0
CSc1nc(O)c(C(c2cccc([N+](=O)[O-])c2)c2c(O)nc(SC)[nH]c2=O)c(=O)[nH]1	63	18	23	-9.6	i	-2.9	-2%	0.68	0.8
COc1ccc(CN(C)C[C@H]2OCCCC[C@H](C)Oc3ccc(NS(=O)(=O)c4ccc(F)cc4)cc3C(=O)N([C@@H](C)CO)C[C@H]2C)cc1	nt	6	-27	0.0	i	10	nt	nt	nt
O=C(NCC(c1ccco1)N1CCCC1)c1ccccc1Sc1ccc(C(F)(F)F)cc1[N+](=O)[O-] (stereo not drawn)	-65	-10	-22	-3.9	nt	8.8	-5%	0.65	2.6
O=C(O)CSCC(=O)N1CCN(S(=O)(=O)c2ccccc2)CC1	5	14	12	0.5	i	-2.5	nt	0.67	1.4
C=CCN1CCN(c2ccncc2S(=O)(=O)N2CCCCC2)CC1	-12	3	10	1.2	i	-0.7	-9%	nt	-0.9
COc1ccc(CCNC(=O)CCC(=O)N2CCOc3ccccc32)cc1OC	4	-5	-1	0.2	i	-7.9	nt	0.7	-4.0
Cc1cc(C(=O)CSc2nnnn2C)c(C)n1-c1ccc2c(c1)OCCO2	nt	nt	nt	nt	nt	nt	?	0.68	0.0
CC(C)n1cnc2c(NCc3ccc(S(N)(=O)=O)cc3)nc(NCc3ccc(S(N)(=O)=O)cc3)nc21	-11	12	28	5.0	i	-0.8	nt	0.64	-1.3
C[C@@H]1CCCCO[C@H](CN(C)Cc2ccc(C(F)(F)F)cc2)[C@H](C)CN([C@@H](C)CO)C(=O)c2cc(NC(=O)c3ccncc3)ccc2O1	nt	-10	-51	36	i	5.1	nt	nt	nt
O=C(NC(=S)Nc1cccc(NC(=S)NC(=O)c2ccccc2)c1)c1ccccc1	nt	-1	8	2.0	i	-2.6	-7%	0.7	12
COc1ccc(CN(C)C[C@@H]2Oc3c(NC(=O)NC(C)C)cccc3C(=O)N([C@@H](C)CO)C[C@@H]2C)cc1	nt	7	10	-0.9	i	-6.3	nt	nt	nt
O=S(=O)(c1ccc(Br)cc1)N1CCN=C1SCc1cccc(F)c1	0	5	8	0.8	i	-0.7	-10%	0.72	2.5
Cc1ccc(C(O)c2ncc(-c3ccccc3C(F)(F)F)[nH]2)cc1F (stereo not drawn)	nt	4	-21	0.9	i	1.0	nt	nt	0.9
Cc1cccn2c(=O)c3cc(S(=O)(=O)c4ccccc4)c(=N)n(Cc4ccc(F)cc4)c3nc12	-9	12	1	2.0	i	0.5	-1%	0.65	-1.8
C[C@@H]1CN([C@H](C)CO)C(=O)c2cc(NS(C)(=O)=O)ccc2O[C@@H](C)CCCCO[C@@H]1CN(C)C(=O)NC1CCCCC1	nt	5	24	-4.1	i	-1.5	nt	nt	nt
CCOC(=O)C(CCCOc1cccc(CC)c1)C(=O)OCC	2	nt	nt	nt	nt	nt	5%	0.73	-1.8
COc1cc(OC)c(OC)cc1CNC(=O)c1ccc(S(=O)(=O)N2CC(C)OC(C)C2)cc1 (stereo not drawn)	-2	8	8	0.4	i	2.8	-10%	0.7	3.0
CCNC(=O)C1(C)CCN(C(=O)c2ccc3snnc3c2)C1 (stereo not drawn)	nt	13	25	1.5	i	-2.5	nt	nt	1.5
Cc1ccc2nc(SCc3nnc(-c4ccccc4)o3)[nH]c2c1	13	nt	nt	nt	nt	nt	0%	0.67	-0.1
COc1ccc(CNC(=O)CN2C(=O)c3ccccc3C2=O)cc1	-10	12	24	0.4	i	-0.3	-3%	0.7	-1.4
O=C(N/N=C/c1c(O)n(-c2ccccc2Cl)c(=O)c2ccccc12)c1cccnc1	nt	-27	-25	4.5	i	3.2	30%	0.64	33
CCn1c(SCC(=O)N2CCN(c3ccccc3)CC2)nnc1-c1ccoc1C	17	6	3	-4.2	nt	nt	7%	0.74	-0.1
Later entries:
SMILES	ALR H2O2 inh	Ecoli rRNA inh	Ecoli rRNA inh OD600	Ecoli rRNA inh RFP	FGF22 binding	MLL AF4-AF9 inh	Vif A3G	Ecoli growth	HNF4A DNA FP
N#CCCN(C(=O)COC(=O)c1ccc2c(c1)OCO2)c1ccccc1	-2	4	-3	-0.5	i	-1.2	nt	0.65	-2.9
COc1ccc(S(=O)(=O)N(C)C[C@@H]2Oc3c(NC(=O)Nc4ccc(C(F)(F)F)cc4)cccc3C(=O)N([C@H](C)CO)C[C@@H]2C)cc1	nt	-1	4	-1.6	i	-2.0	nt	nt	nt
O=C(C[C@@H]1C=C[C@@H](NC(=O)Cc2cccnc2)[C@@H](CO)O1)Nc1ccccc1	nt	-1	6	-1.0	i	-0.6	nt	nt	nt
COc1ccc(C(=O)c2c(C(F)(F)F)oc3c2C(=O)c2ccccc2C3=O)cc1	-49	nt	nt	nt	nt	nt	6%	0.72	3.1
Cc1oc(-c2ccccc2Cl)nc1CS(=O)(=O)CC(=O)NCCc1ccccc1	70	-2	-14	-0.9	i	8.1	nt	0.66	0.1
COc1ccc(C(=O)c2c3ccc(OC)cc3[n+]([O-])n2CCCC(N)=O)cc1	8	-13	-3	0.0	i	1.8	nt	0.64	1.1

These rows are one share of the data; rates above refer to the full screens.
